# miR-21 reporter: raises the signal of a miR-21 reporter; HeLa miR-21 FLuc reporter, luciferase, 48 h; Potency, µM (series often up to 38.3 µM), without a hit: at the highest dose reporter change, positive = more light; 340,000 tested, under 10 active; AID 2288; active = well fitted rising curve with a large enough effect; inconclusive = small, poorly fitted or top-dose-only effect; inactive = no such curve, though single readings can be large or run the other way;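 further: % of control where 0% means no effect; miR-21 action dims this reporter so a rising signal means less miR-21 action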
#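 HeLa cells endogenously expressing miR-21, stably carrying CMV-driven firefly luciferase with a downstream miR-21 binding site, 2000 cells/well. Titrations up to approximately 40 uM, 48 hours; luciferase luminescence read.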
# * marks the source's active call; other numbers are inactive results; ? = inconclusive; [ ] = remark or other dose. These rows are one share of the data; rates above refer to the full screens.
SMILES	miR-21 reporter
CCOc1ccccc1NC(=O)CCc1c(C)nc2c3cccnc3nn2c1C	1.2%
CCCCOc1ccc(C(=O)N(Cc2ccco2)Cc2ccco2)cc1	14.3%
COc1cc(OC)cc(-n2nnc(-c3nc(-c4ccccc4Cl)no3)c2N)c1	-8.0%
COc1ccc(NC(=O)CCCn2c(=O)c3cccn3c3cccnc32)cc1Cl	-18.5%
COc1cccc(-c2nc(SCc3ccc(C)cc3)n3[nH]c(=O)cc3n2)c1	-20.2%
CCc1ccc(N2CC(c3nc4ccccc4n3Cc3ccccc3C)CC2=O)cc1 (stereo not drawn)	11.0%
COc1ccc(NC(=O)CSc2nc(-c3ccco3)cc(C(F)(F)F)n2)cc1OC	16.1%
Cc1ccc(C(=O)NCC(c2cccnc2)N2CCc3ccccc3C2)cc1C (stereo not drawn)	-55.2%
Cc1nc2nc(SCC(=O)Nc3ccccc3Cl)nn2c(C)c1Cc1ccccc1	-3.2%
Cc1ccc(NC(=O)c2cc3c(Cl)nc4ccc(C)cc4c3s2)c(Cl)c1	-0.7%
Cc1cccc(N2CCN(C(=O)CCNS(=O)(=O)c3ccc4c(c3)CCN4C(=O)C3CC3)CC2C)c1 (stereo not drawn)	14.0%
O=C(CSc1ncccc1C(=O)Oc1ccccc1Cl)Nc1ccc(C(F)(F)F)cc1Cl	-27.7%
CC1=C(C(N)=O)C(c2ccc(C)cc2)n2nc(SCc3ccccc3)nc2N1 (stereo not drawn)	2.8%
O=C(Nc1ccc2nc(SCCOc3ccccc3)sc2c1)c1cccs1	0.6%
CC1CCN(S(=O)(=O)c2ccc3ncn(CC(=O)Nc4ccccc4C(F)(F)F)c(=O)c3c2)CC1	12.7%
COCCCNC(=O)Cn1nc(N2CCN(c3ccccc3)CC2)ccc1=O	4.2%
Cc1ccc(CN2CCCn3nc(C(=O)NCC(C)c4ccccc4)cc3C2=O)cc1 (stereo not drawn)	18.3%
CCCN(C(=O)c1sc2nc3n(c(=O)c2c1C)CCCC3)c1ccccc1C	-4.9%
Cc1ccc(-n2c(SCC(N)=O)nc3c(oc4ccccc43)c2=O)cc1C	25.2%
COc1cc(OC)cc(C(=O)Nc2ccccc2-c2nc3ccccc3s2)c1	-1.4%
COc1cc(OC)cc(C(=O)Nc2ccc3nc(Nc4cccc(C(F)(F)F)c4)cc(C)c3c2)c1	?
CCc1ccc2oc(C(=O)Nc3c(C)n(C)n(-c4ccccc4)c3=O)cc(=O)c2c1	-7.3%
CCOc1ccc(CCNC(=O)CSc2n[nH]c(-c3ccccc3)n2)cc1OCC	11.8%
CCOC(=O)c1ccc(CN(Cc2ccccc2C)S(=O)(=O)c2ccc(F)c(C(=O)Nc3cccc(OC)c3)c2)cc1	?
CCc1nnc(NC(=O)CSc2nccn2Cc2ccc(F)cc2)s1	-3.7%
COC(=O)c1ccc(C(=O)OC)c(NC(=O)c2cc3nc(-c4ccc(C)cc4)cc(C(F)(F)F)n3n2)c1	-2.8%
COc1ccc(-c2noc(-c3ccc(NC4CCCC4)c([N+](=O)[O-])c3)n2)cc1	1.1%
Cc1cc2c(cc1NC(=O)c1ccc(C(C)(C)C)cc1)n(C)c(=O)c(=O)n2C	14.1%
Cc1cc(C)cc(NC(=O)CN2C(=O)CCc3cc(S(=O)(=O)N4CCCCC4)ccc32)c1	25.0%
CCc1ccc(NC(=O)C(=O)NCC(c2ccc3c(c2)OCO3)N2CCN(C)CC2)cc1 (stereo not drawn)	-7.8%
O=c1c(S(=O)(=O)c2ccccc2)cn(Cc2ccccc2)c2cc(N3CCCC3)c(F)cc12	-1.5%
Cc1ccccc1-c1nc(CN2CCC(C(=O)NCc3ccc(F)cc3)CC2)c(C)o1	9.1%
O=C(O)c1ccccc1NC(=O)N1c2ccccc2Sc2ccccc21	-12.8%
CCOC(=O)c1c(S(=O)(=O)N2CCC(C(=O)N3CCN(c4ccccc4F)CC3)CC2)c(C)n(C)c1C	1.8%
CCOc1ccc2c(c1)c(=O)c(S(=O)(=O)c1ccc(F)cc1)cn2CC(=O)Nc1ccccc1C	-6.6%
CCOCCCNC(=O)c1ccc(Cn2c(=O)c3cccn3c3cccnc32)cc1	9.0%
CCOc1ccc(CCNC(=O)c2cc3c(s2)-c2c(C)cccc2OC3)cc1	-1.1%
COc1ccc2c(c1)CCc1sc(NC(=O)c3ccc(Cl)cc3)nc1-2	0.7%
CC(C)CNc1nc(NC(C)(C)C)nc(Oc2ccc(=O)n(-c3ccccc3)n2)n1	8.7%
Cc1cccc(CS(=O)(=O)Cc2ccc(C(=O)NCc3ccc(F)cc3)o2)c1	15.6%
CCc1ccc(CNC(=O)c2ccc(-n3c(C)cc4c3CCC(C)C4)cc2)cc1 (stereo not drawn)	?
CCc1cc2c(cc3c(=O)n(CC(=O)NCc4cc(Br)ccc4OC)ncn32)s1	-9.4%
CNc1ccc(-c2nc(-c3ccccc3C)no2)cc1[N+](=O)[O-]	-27.1%
CCCNC(=O)N1CCCN(S(=O)(=O)c2ccc3c(ccn3CC)c2)CC1	5.2%
Cc1cc(NC(=O)c2cc(-c3cccc(Cl)c3)on2)n(-c2ccccc2)n1	0.9%
CCOc1ccc(NC(=O)NCc2cccn2Cc2ccccc2)cc1	-0.9%
CCn1cc(S(=O)(=O)c2cc(C)cc(C)c2)c(=O)c2cc(F)c(N3CCN(c4ccccc4)CC3)cc21	1.3%
O=C1CCCC2=C1C1O[C@](c3ccsc3)(Cc3c1ccc1ccccc31)O2	-2.9%[7.66 µM]
CCOC(=O)C1CCC(CN(Cc2ccc(OC)cc2)S(=O)(=O)c2ccc(F)c(C(=O)Nc3cc(C)ccc3C)c2)CC1 (stereo not drawn)	-5.3%
Cc1ccc(CNC(=O)CCCn2c(=O)[nH]c3ccc(Br)cc3c2=O)cc1	-2.9%

# Further results:
SMILES	miR-21 reporter
Cn1c(CNC(=O)CSc2nc(-c3ccccc3F)nc3cc(=O)[nH]n23)nc2ccccc21	0.0%
Cc1ccc(C)c(N2CCN(C(=O)c3cc4ccc5cccnc5c4[nH]3)CC2)c1	12.8%
CC(=O)N1c2ccccc2CC1C(=O)N1CCN(c2ccc(F)cc2)CC1 (stereo not drawn)	2.3%
Cn1c(=O)c2c(c3ccccc31)OC(=O)CC2c1ccccc1 (stereo not drawn)	-0.2%
Cc1ccccc1Cn1nnc2c(=O)[nH]c(C3CCCN(C(=O)c4ccc(F)cc4)C3)nc21 (stereo not drawn)	-7.7%
CC(=O)N1c2ccc(S(=O)(=O)NCC3CCC(C(=O)NC(C)(C)C)CC3)cc2CC1C (stereo not drawn)	-0.5%
CNC(=O)c1ccc2c(c1)N(Cc1ccccc1Cl)C(=O)c1ccccc1S2	-0.1%
Cc1ccc(CSc2nc3ccc(NC(=O)COc4ccc(F)cc4)cc3s2)cc1	-9.3%
Cc1cccc(NC(=O)CN(c2ccc(C(C)C)cc2)S(=O)(=O)c2c(C)nn(C)c2C)c1C	4.9%
COc1ccc(Cn2c(CCC(=O)NCc3ccc(Cl)cc3)nc3cccnc32)cc1	-4.0%
CCc1ccc(OCc2cc(=O)n3c4c(sc3n2)CCCC4)cc1	-10.3%
COc1ccc2c(c1)cc1c(=O)n(CC(=O)NC3CCCCC3)nc(C)n12	-1.7%
Cc1ccc(CN2CCN(C3CCN(C(=O)c4ccc(C)cc4)CC3)C(=O)C2=O)cc1	-2.6%
Brc1csc(CN2CCc3nc(Nc4ccccc4)ncc3C2)c1	-13.3%
CCCn1c2ccccc2c2cnn(CC(=O)NCCc3ccc(OCC)c(OCC)c3)c(=O)c21	5.2%
CC(C)c1ccc(Nc2cc(C(=O)NC3CCCCC3)c3ccccc3n2)cc1	-0.4%
CCn1c(C(=O)Nc2cc(C)cc(C)c2)cc2sc(Cl)cc21	2.1%
CCOc1cc(CNC(=O)c2ccc3c(c2)N(C)C(=O)C2CCCCN32)ccc1OC (stereo not drawn)	3.5%
CC(=O)Nc1ccc(Nc2ncnc3c2c(-c2ccccc2)cn3-c2ccccc2)cc1	4.6%
COc1ccc(Cl)c(Cn2c(NCCN)nc3c2c(=O)n(C)c(=O)n3C)c1	-0.1%
CCOC(=O)c1c(C)[nH]c(C)c1S(=O)(=O)NCC(=O)NCc1cccc(Br)c1	-7.6%
COc1cccc(NC(=O)c2sc(-n3nc(C)c(Cc4ccccc4Cl)c3C)nc2C)c1	-3.2%
O=C(Cn1nc(N2CCN(c3ccccc3)CC2)ccc1=O)NCc1cccc(Cl)c1	13.7%
COc1ccc(C(=O)Nc2ccc3nc(SCC(=O)N4CCCc5ccccc54)sc3c2)cc1	-5.1%
Cc1cc(N2CCC(C(=O)Nc3ccc(F)cc3C)CC2)n2nc(C)c(-c3ccc(Cl)cc3)c2n1	2.2%

# By substructure: the entries above with a nitro group on carbon
SMILES	miR-21 reporter
COc1ccc(-c2noc(-c3ccc(NC4CCCC4)c([N+](=O)[O-])c3)n2)cc1	1.1%
CNc1ccc(-c2nc(-c3ccccc3C)no2)cc1[N+](=O)[O-]	-27.1%

# (next part)
SMILES	miR-21 reporter
Cc1ccc(-c2noc(-c3ccc(N4CCCCC4C)c([N+](=O)[O-])c3)n2)cc1 (stereo not drawn)	-25.3%
COc1ccc(CC(=O)NCC(c2ccc(N(C)C)cc2)N2CCOCC2)cc1 (stereo not drawn)	-3.6%
CCOC(=O)CN1C(C(=O)c2ccccc2)=C(OC(=O)C(C)(C)C)c2ccccc2S1(=O)=O	?
CCC(=O)N1CCc2cc(S(=O)(=O)NCCC(=O)Nc3ccc(OC)c(Cl)c3)ccc21	0.6%
CCn1cc2nc(SCc3cccc(OC)c3)n(Cc3ccc(Cl)cc3)c(=O)c2n1	?
COc1ccc(-c2nc3c(c(SCC(=O)N4CCCCC4)n2)Cc2cc(Cl)ccc2O3)cc1	0.2%
CCn1c(=O)n(CC)c2cc(N3CCCCC3)c(NC(=O)Nc3cc(C)cc(C)c3)cc21	22.3%
O=C(Cn1c(=O)n(Cc2ccccc2)c(=O)c2sc3ccccc3c21)NCc1ccccc1Cl	-2.1%
Cc1ccc(S(=O)(=O)c2cn(CC(=O)Nc3cccc(C)c3)c3cc4c(cc3c2=O)OCO4)cc1	-4.4%
O=c1c2oc3ccccc3c2n(Cc2ccccc2)c(=O)n1Cc1ccc2c(c1)OCO2	-1.1%
Cn1nnnc1SCCCNCc1cc(Br)ccc1OCc1ccccc1	17.7%
COc1ccc(OCC2c3cc(OC)c(OC)cc3CCN2C(=O)c2c(F)cccc2F)cc1 (stereo not drawn)	7.7%
COc1cccc(C(=O)Nc2cccc(C(=O)OCc3cc(=O)n4c5c(sc4n3)CCCC5)c2)c1	-24.2%
Cc1cc(C)c(NC(=O)CN(C)S(=O)(=O)c2ccc3c(c2)CCC(=O)N3)c(C)c1	2.5%
COc1ccc(S(=O)(=O)NCCc2sc(-c3cccnc3)nc2C)cc1	1.5%
CCS(=O)(=O)N1CC(=O)N(c2ccccc2C)C(C)(C(=O)NC2CCCCC2)C1 (stereo not drawn)	-6.7%
O=C(CN1C(=O)CCn2nc(-c3ccccc3)cc21)NCc1ccc(Cl)cc1	0.6%
Cc1c(Cl)cccc1NC(=O)Cn1cc(C(=O)c2cccs2)c2ccccc21	?
Cc1ccc(NC(=O)CN2C(=O)CC(c3ccco3)Sc3ccccc32)cc1Cl (stereo not drawn)	9.1%
O=C(Cn1c(=O)oc2cc(S(=O)(=O)NCc3ccccc3)ccc21)Nc1cccc(F)c1	5.6%
COc1ccc(S(=O)(=O)N(CC(=O)Nc2ccc(F)c(Cl)c2)c2ccc(C)cc2)cc1OC	1.1%
CCc1nnc(SCc2cc(C)ccc2C)c2cc3sc(C)cc3n12	-0.2%
CCC(Sc1ncc(S(=O)(=O)c2ccc(Cl)cc2)c(=O)[nH]1)C(=O)Nc1ccc(OC)cc1 (stereo not drawn)	-3.0%
O=C(CN1C(=O)CCc2cc(S(=O)(=O)N3CCOCC3)ccc21)NCc1ccc(F)cc1	2.2%
Cc1cc(C)c(S(=O)(=O)Nc2ccc3oc4c(c3c2)C(=O)CC(C)(C)C4)cc1C	4.1%

# A second format for 2 compounds above:
CCCNC(=O)N1CCCN(S(=O)(=O)c2ccc3c(ccn3CC)c2)CC1
  miR-21 reporter: 5.2%

Cc1cc(NC(=O)c2cc(-c3cccc(Cl)c3)on2)n(-c2ccccc2)n1
  miR-21 reporter: 0.9%

# The listing continues:
SMILES	miR-21 reporter
Cc1cccc(C)c1Nc1nn2c(=O)c3cc4c(cc3nc2s1)OCO4	-8.3%
CCC(=O)N1CCc2cc(Br)cc(S(=O)(=O)CCC(=O)N3CCN(c4cccc(C)c4)C(C)C3)c21 (stereo not drawn)	15.4%
COc1ccccc1CN(Cc1ccco1)c1cnc(S(C)(=O)=O)nc1C(=O)Nc1cc(C)ccc1C	0.3%
COc1ccc(C2CC(=O)N(Cc3ccc(F)cc3)c3ccccc3S2)cc1OC (stereo not drawn)	-4.8%
CC(=O)N[C@@H](C)c1nc2ccccc2n1CCNC(=O)[C@H]1CCCN1c1nc(CN2CCCCC2)cs1	1.5%
Cc1ccc(CN(Cc2ccco2)C(=O)c2ccc(Cl)cc2Cl)cc1	6.3%
COc1cc(-c2noc(-c3ccc(NC4CCCCC4)c([N+](=O)[O-])c3)n2)cc(OC)c1OC	-25.0%
CCN(CCCNC(=O)CN1N=C(c2ccccc2)CCC1=O)c1cccc(C)c1	10.7%
COc1cccc(CNC(=O)c2oc3c(c2C)-c2nn(Cc4cccc(Cl)c4)cc2CC3)c1	12.3%
